# Source: PubChem
# GIV-Gai inh = GIV-Galpha-i interaction inhibition. P08753. Galpha-i3/FITC-GIV peptide fluorescence polarization, 90 min; active compounds read low; scaled: aluminum fluoride 0%, vehicle 100%. percent of control (FP), % (concentration not given with the values). hit rate 0.42% among 210,000. AID 1224905;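 active = replicate mean at 85% of control or lower, very high polarization wells dropped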;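 note: wells of about 15 µL received 100 nL stock; the first replicate is given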
# Target sequence (P08753 whole entry, looked up): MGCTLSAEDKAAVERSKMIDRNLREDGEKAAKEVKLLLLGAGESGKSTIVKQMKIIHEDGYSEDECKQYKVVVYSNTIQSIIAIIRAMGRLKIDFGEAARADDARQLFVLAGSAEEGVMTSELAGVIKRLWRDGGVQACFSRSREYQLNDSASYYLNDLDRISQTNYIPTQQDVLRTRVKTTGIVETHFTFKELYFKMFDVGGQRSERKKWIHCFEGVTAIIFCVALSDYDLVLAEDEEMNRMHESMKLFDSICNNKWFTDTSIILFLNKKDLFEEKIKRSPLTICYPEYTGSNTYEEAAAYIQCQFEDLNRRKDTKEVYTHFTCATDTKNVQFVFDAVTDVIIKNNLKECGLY
# HCMV UL50-53 inh = cytomegalovirus nuclear egress complex inhibition; HTRF UL50-UL53 interaction, normalized percent inhibition; inhibition, % (no concentration beside the values); hit rate 0.15% among 190,000; AID 1918969;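 active = both replicates at 50% or more, plus weaker picks with an unusually low signal ratio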;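 note: stock transfer was 100 nL into about 20 µL; 0% = negative control wells and 100% = wells with untagged competitor protein; inactives centre near -12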
# Sa growth inh = S. aureus growth inhibition. S. aureus RN4220 growth, OD600, 20 h, 42 °C; active compounds read low. relative growth, % (concentration not given with the values). hit rate 0.53% among 170,000;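 active = growth at 42 °C up to 50% and 20 or more points under that at 30 °C, or under 10% at both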;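 note: 300 nL library stock went into each well; scaled to the means of positive and negative controls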
# Sa growth inh second temp = second read-out of Sa growth inh, no call of its own (marks repeat the call); relative growth, %; measured here: growth at 30 °C;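 optical density after 20 h as mean of two plates; 100% = untreated growth and lower means inhibition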
# An asterisk follows results filed as active; nt = not tested or not shown; & = joins results of further samples. Compounds were not picked by outcome; about 0.8% have a hit in one of these screens.
# Preview:
SMILES,GIV-Gai inh,HCMV UL50-53 inh,Sa growth inh,Sa growth inh second temp
C=CCn1c(SCC(=O)Nc2ccc3[nH]c(=O)[nH]c3c2)nc2ccccc2c1=O,nt,-5.5,109.7,77.6
CCN(CCCNC(=O)Cn1ncc2c([nH]c3ccc(C)cc32)c1=O)c1ccccc1,116.1,nt,112.9,101.7
CN1C2=NCCN2C(=O)c2ccccc21,98.9,-22.2,87.0,87.5
CC(=O)NC(CC(=O)O)c1ccccc1 (stereo unspecified),nt,-33.2,93.0,75.1

# The listing, previewed entries included:
SMILES,GIV-Gai inh,HCMV UL50-53 inh,Sa growth inh,Sa growth inh second temp
C=CCn1c(SCC(=O)Nc2ccc3[nH]c(=O)[nH]c3c2)nc2ccccc2c1=O,nt,-5.5,109.7,77.6
CCN(CCCNC(=O)Cn1ncc2c([nH]c3ccc(C)cc32)c1=O)c1ccccc1,116.1,nt,112.9,101.7
CN1C2=NCCN2C(=O)c2ccccc21,98.9,-22.2,87.0,87.5
CC(=O)NC(CC(=O)O)c1ccccc1 (stereo unspecified),nt,-33.2,93.0,75.1
O=C(Nc1nc2n(n1)C(c1ccc(F)cc1)C=C(c1ccccc1)N2)c1cccc([N+](=O)[O-])c1 (stereo unspecified),103.1,-31.9,86.2,82.2
O=C(O)CC1(CC(=O)Nc2ccc(N3CCOCC3)c(Cl)c2)CCCCC1,99.8,-3.1,113.8,90.6
COc1ccc(OCC(=O)N2CC(C)CC(C)C2)cc1 (stereo unspecified),nt,-17.0,96.6,93.2
CCOC(=O)c1c(C)[nH]c(C(=O)OCC(N)=O)c1C,nt,-5.6,91.6,89.7
Cc1ccc(NC(=O)CC2C=CCC2)cc1 (stereo unspecified),nt,4.0,103.9,94.8
O=C(CSc1nc2c([nH]c3ccccc32)c(=O)n1-c1ccccc1)N1CCCc2ccccc21,107.8,nt,93.1,100.5

# 2 entries from above in a different format:
Compound: CCOC(=O)c1c(C)[nH]c(C(=O)OCC(N)=O)c1C
- GIV-Gai inh: nt
- HCMV UL50-53 inh: -5.6
- Sa growth inh: 91.6
- Sa growth inh second temp: 89.7

Compound: Cc1ccc(NC(=O)CC2C=CCC2)cc1 (stereo unspecified)
- GIV-Gai inh: nt
- HCMV UL50-53 inh: 4.0
- Sa growth inh: 103.9
- Sa growth inh second temp: 94.8

# 5 compounds already listed, arranged by the number in GIV-Gai inh, smallest number first.
SMILES	GIV-Gai inh
CN1C2=NCCN2C(=O)c2ccccc21	98.9
O=C(O)CC1(CC(=O)Nc2ccc(N3CCOCC3)c(Cl)c2)CCCCC1	99.8
O=C(Nc1nc2n(n1)C(c1ccc(F)cc1)C=C(c1ccccc1)N2)c1cccc([N+](=O)[O-])c1 (stereo unspecified)	103.1
O=C(CSc1nc2c([nH]c3ccccc32)c(=O)n1-c1ccccc1)N1CCCc2ccccc21	107.8
CCN(CCCNC(=O)Cn1ncc2c([nH]c3ccc(C)cc32)c1=O)c1ccccc1	116.1

# (further entries)
SMILES,GIV-Gai inh,HCMV UL50-53 inh,Sa growth inh,Sa growth inh second temp
Cc1ccc(O)c(C(CCN(C(C)C)C(C)C)c2ccccc2)c1 (stereo unspecified),nt,-45.9&-15.1&-78.3,88.1,84.1
CC(NC(=O)C1CCN(C(=O)c2cc3sccc3n2C)CC1)C12CC3CC(CC(C3)C1)C2 (stereo unspecified),99.8,-17.4,93.2,91.2
CCOc1c(N2CCCc3ccccc32)c(=O)c1=O,100.3,-48.0,nt,nt
Cc1ccc(C)c(OCCn2cc(C(=O)c3ccco3)c3ccccc32)c1,105.1,-5.7,99.3,100.6
CC(=O)Nc1ccc(NC2OC(=O)c3ccccc32)cc1 (stereo unspecified),103.7,7.2,88.4,98.0
Cc1nc(-c2cc(C#N)c(Sc3cccc(C(F)(F)F)c3)nc2C)cs1,100.0,-12.7,105.1,98.3
CC(=Nc1ccc(Cl)cc1)c1cccs1,nt,-1.2,83.5,96.0
Cc1c(Cl)cccc1NC(=O)c1ccc2snnc2c1,103.8,-22.8,98.0,85.8
Cc1ccc(S(=O)(=O)Cc2csc(N3CCOCC3)n2)cc1,97.4,-0.7,104.8,94.8
COc1ccc(-c2c(C(F)(F)F)nn(C)c2NC(C)=O)cc1,106.5,-31.5,88.6,86.0
Cc1ccc(OCC(=O)NCC2(N3CCN(C)CC3)CCCCC2)cc1,104.7,6.8,105.3,89.7
CCCCCn1c(Br)nc2c1c(=O)n(CC(N)=O)c(=O)n2C,105.4,-24.9,112.1,81.8
CCCn1c2c(c(=N)c3c1CCC3)CCC2,98.9,nt,125.0,80.7
CCOc1ccc(-n2c(SC(C)C(=O)NCc3ccco3)nnc2-c2ccccc2Cl)cc1 (stereo unspecified),nt,-22.5,82.0,90.2
COc1ccccc1C(C)NC(=O)c1ccc(=O)[nH]c1 (stereo unspecified),nt,-14.3,102.4,94.3
COc1ccc(S(=O)(=O)NCCc2csc(-c3ccc(F)cc3)n2)cc1F,103.7,nt,105.7,96.5
CCn1c(=O)cc(OCC(=O)Nc2cc(Cl)c(OC)cc2OC)c2ccccc21,101.1,-18.8,100.5,94.5
Cc1ccc(C(=O)OCC(=O)N2CCOCC2)c(C)c1,nt,-9.3,121.6,94.7
CCN(CC)CC(O)COc1cc(C(F)(F)F)ccn1 (stereo unspecified),98.6,-17.3,106.8,80.5
CN=Cc1cc(-c2ccccc2)n(C)c1S,100.8,nt,75.0,47.8
O=C(Nc1ccccc1)N(C1=NCCC1)c1ccccc1,nt,3.6,109.5,102.1
O=C1O[C@@H]2C[C@H]3C[C@@H]2[C@@H]1[C@H]3C(=O)N1CCC(C(O)(c2ccccc2)c2ccccc2)CC1,103.3,-14.5,93.6,73.0
Cc1ccc(-n2nnnc2SCC(=O)Nc2cccc3nsnc23)c(C)c1,nt,10.7,112.1,97.1
O=C(NC1CC(=O)N(c2cccc(F)c2)C1)C1CCCCC1 (stereo unspecified),97.7,nt,113.9,86.1
Cc1ccc(C(=O)Nc2nnc(CCS(=O)(=O)c3ccc(Br)cc3)s2)cc1[N+](=O)[O-],108.5,5.6,nt,nt
O=C(Cn1c(=O)n(-c2ccccc2)c(=O)c2ccc(C(=O)NCc3ccc4c(c3)OCO4)cc21)Nc1ccc(Br)cc1,101.5,-12.0,99.6,92.4
C(=C\c1ccccc1)/C=N/n1cnnc1,101.4,-81.3,93.8,96.1
COC(=O)c1cc2ccsc2n1CC(=O)Nc1ccccc1,103.9,4.5,nt,nt
OCCCc1nc2ccccc2n1C1CCCCC1,nt,-19.7,110.8,90.5
CC(=O)Nc1cc(-c2sc3ccc(Cl)cc3c2C)[nH]n1,106.7,9.0,89.3,94.7
Cc1ccc(CN2CCc3nc(Nc4ccc5c(c4)OCCO5)ncc3C2)cc1,100.1,nt,103.6,96.9
O=C(O)c1cn[nH]c1-c1ccc(F)cc1,102.9,nt,104.9,97.9
COc1ccc(-c2noc(CN(C(=O)COc3cc(C)c(Br)c(C)c3)C(C)C)n2)cc1,104.8,2.3,105.0,89.3
CCCN1C(=O)SC(CC(=O)Nc2ccc(C(=O)OCC)cc2)C1=O (stereo unspecified),99.8,nt,103.4,70.5
COc1cc(SC)ccc1C(=O)N1CCC(Cc2ccccc2)CC1,105.7,-29.5&1.4&-16.2,nt,nt
Cc1cc2nc3ccc(=[N+](C)C)cc-3sc2cc1N,nt,-332.9,209.4,124.2
Cc1ccc(N=C2N=C(N)c3ccccc32)c(C)c1,nt,-64.3,121.1,86.3
COc1ccc(N=C2SC(C(=O)Nc3ccc(OC)cc3)CC(=O)N2Cc2ccc3c(c2)OCO3)cc1 (stereo unspecified),101.4,-21.4,nt,nt
O=C(Cn1cc(S(=O)(=O)c2ccccc2)c(=O)c2cc3c(cc21)OCO3)Nc1ccccc1,108.2,3.8,80.7,98.7
COc1cc(OC)cc(-c2nc3nc(C)c(CCC(=O)Nc4ccc(F)cc4F)c(C)n3n2)c1,106.4,3.3,91.0,92.0
CCN(CC)S(=O)(=O)c1ccc2oc(C(=O)NCc3ccccc3OC)c(C)c2c1,106.3,0.3,109.2,91.5
COC(=O)C1=C(C)N(C)C(=S)NC1c1ccccc1 (stereo unspecified),100.4,nt,88.0,82.0
Cc1ccc(-c2nc3ccccn3c2Nc2c(C)cccc2C)o1,99.3,-22.9,1.6*,1.7*
c1ccc(C(c2ccccc2)N2CCN(c3ncnc4nc[nH]c34)CC2)cc1,101.0,-19.3,95.0,73.5
Brc1cccc(COc2ccc(-c3nnco3)cc2)c1,nt,-15.5,79.9,76.3
CC(C)CSc1ccccc1NC(=O)c1sc2nc(-c3ccncc3)ccc2c1N,182.6,-26.5,99.2,93.4
CCOC(=O)c1[nH]c(C)c(S(=O)(=O)NCCN2CCOCC2)c1C,101.3,2.3,nt,nt
CC1CCN(CC2CCN(C(=O)Nc3ccc(Br)cc3F)CC2)CC1,102.2,nt,110.5,92.8
CCn1c(-c2ccccc2Cl)nc2ccccc21,111.3,nt,120.2,83.8
Cc1ccccc1OCC(=O)NN1C(=O)C2C3C=CC(O3)C2C1=O (stereo unspecified),108.9,2.9,99.3,96.3

# The listing continues:
SMILES,GIV-Gai inh,HCMV UL50-53 inh,Sa growth inh,Sa growth inh second temp
CCN(CC)C(=O)CSc1nc2ccsc2c(=O)n1Cc1ccccc1Cl,102.9,nt,109.7,88.3
S=c1[nH]cc(-c2ccc(Br)cc2)[nH]1,95.5,-17.4,105.6,63.9
c1ccc(-c2nnc(Sc3ncnc4c3oc3ccccc34)o2)cc1,nt,-7.6,94.6,97.8
C=CCN(CC(=O)Nc1cccnc1)S(=O)(=O)c1ccc(Cl)cc1,nt,-35.9,105.4,99.5
Cc1oc2ncn(CC(=O)NC3CCS(=O)(=O)C3)c(=O)c2c1C (stereo unspecified),106.5,-8.4,nt,nt
Cc1ccc(-c2nn(-c3ccccc3)cc2/C=N/O)cc1,103.1,nt,103.7,64.3
CCn1c(CC2C(=O)N(C)c3ccc(Br)cc32)nc2ccccc2c1=O (stereo unspecified),99.1,-35.8,94.5,64.8
CSc1ncc(C(=O)NC2CCN(Cc3ccccc3)CC2)c(C)n1,123.6,-6.7,107.3,97.0
O=C(O)CCCOc1ccc(Br)cc1,nt,13.7,95.3,98.4
COc1cccc(NC(=O)C(C)(C)C)c1,97.0,-14.6,102.3,81.4
N#CCOC(=O)c1ccc2c(c1)S(=O)(=O)N=C1CCCCCN12,nt,-15.3,87.4,94.2
FC(F)(F)c1cc(Cl)c2ncc(-c3ccc(Br)s3)nc2c1,109.0,-80.2,92.4,87.2
CCOc1ccc(C2C(C(=O)Nc3ccc(F)cc3)c3ccccc3C(=O)N2CCN2CCOCC2)cc1 (stereo unspecified),101.8,-5.0,95.7,82.0
CC1CC(CC(C)C(=O)Nc2nncs2)C(=O)O1 (stereo unspecified),103.1,-13.7,87.2,79.0
O=c1c2cccnc2n(Cc2cccc(F)c2)c(=O)n1Cc1ccccc1Cl,102.0,-37.9,101.7,89.9
O=C(CN1C(=O)c2ccccc2C1=O)Nc1ncn[nH]1,nt,-17.6,108.9,86.7
COc1ccc2cc3c(nc2c1)N(S(=O)(=O)c1ccc(C(C)(C)C)cc1)CC3,92.7,-1.4,nt,nt
COc1cc(C2c3c(oc4ccc(C)cc4c3=O)C(=O)N2Cc2ccccc2)ccc1O (stereo unspecified),98.3,15.2,85.7,97.7
O=C(c1cc2ccc3cccnc3c2[nH]1)N1CCCC1,99.4,-27.0,88.3,82.5

# Complete entries, looked up by structure. Screens in order: GIV-Gai inh	HCMV UL50-53 inh	Sa growth inh	Sa growth inh second temp
# Entry for CCOc1ccc(C2C(C(=O)Nc3ccc(F)cc3)c3ccccc3C(=O)N2CCN2CCOCC2)cc1 (stereo unspecified) → 101.8	-5.0	95.7	82.0
# Entry for CC1CC(CC(C)C(=O)Nc2nncs2)C(=O)O1 (stereo unspecified) → 103.1	-13.7	87.2	79.0
